# High-throughput results (PubChem)
# HPGD inh – HPGD (human) dehydrogenase inhibition; P15428; purified HPGD, NADH fluorescence kinetic, PGE2 substrate; Potency, µM, without a hit: at the top dose activity change, negative = inhibition, usual class: inhibitors; 4.3% of 150,000 active; AID 894; active = well fitted inhibition curve with a large enough effect (not every such curve was filed as active); inconclusive = small, poorly fitted or top-dose-only effect, or another doubt; inactive = no such curve, though single readings can be large or run the other way;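 also: top concentration of the series not given in the record; plate controls included wells without enzyme; inactives centre near -10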
# Target sequence (P15428 whole entry, looked up): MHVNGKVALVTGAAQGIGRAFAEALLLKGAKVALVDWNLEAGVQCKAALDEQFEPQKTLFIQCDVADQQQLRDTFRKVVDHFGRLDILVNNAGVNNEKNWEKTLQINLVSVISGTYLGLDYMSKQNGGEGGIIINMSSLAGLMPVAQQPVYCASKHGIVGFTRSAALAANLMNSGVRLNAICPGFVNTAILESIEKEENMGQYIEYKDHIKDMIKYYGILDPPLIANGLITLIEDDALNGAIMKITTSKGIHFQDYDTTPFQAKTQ
#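 20 nM HPGD preincubated 15 min at room temperature with compound in 50 mM Tris-HCl pH 8, 0.01% Tween 20. Started with 1 mM NAD+ and 30 uM prostaglandin E2; NADH fluorescence (360/450 nm) read 5 times over 30-s intervals, last minus first.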
# An asterisk follows results filed as active; ? = inconclusive. % is scaled to controls: 0 for no effect and ±100 for the full control effect; potency is read from the fitted curve at half-maximal effect.
canonical_smiles	HPGD inh
CCCCC(=O)Nc1nc(C)c(C(C)=O)s1	-6%
COc1ccccc1C(=O)NCC(c1cccnc1)N(C)C (centres undefined)	-5%
COc1ccc(CCNC(=O)CN2CCN(Cc3ccc(F)cc3)C2=O)cc1OC	-5%
CCn1c(=O)c2c3c(sc2n2cnnc12)CCC3	-1%
COc1ccccc1NS(=O)(=O)c1cc(NC(=O)c2ccc(Cl)nc2)ccc1Cl	-25%
Cc1ccc(CCNC(=O)c2ccc(CS(=O)(=O)Cc3ccccc3F)o2)cc1	0%
Cc1ccc(-n2cnc(=O)c3cccnc32)cc1	-11%
CCN(CC)c1nc2cc(OC)ccc2cc1C#N	-27%
N#Cc1cccc(NC(=O)CSc2ccc3c4c(cccc24)C(=O)c2ccccc2-3)c1	-29%
Cc1cccc(C)c1NC(=O)C1(NC(=O)C2CCC(=O)N2)CCCCC1 (centres undefined)	-8%
CN(c1ccccc1)S(=O)(=O)c1cccc(NC(=O)CSc2nncn2C)c1	-8%
CCOC(=O)c1c(NC(=S)Nc2ccccc2C)sc2c1CCC2	-13%
O=C(c1cnccn1)N1CCC2(CC1)CCN(c1ccccn1)CC2	-9%
CC(NC(=O)COC(=O)[C@@H]1CCCN1S(=O)(=O)c1ccccc1F)C12CC3CC(CC(C3)C1)C2 (some centres undefined)	-26%
Nc1ccc(-c2sc(N)nc2-c2ccccc2)cc1	-11%
O=C(NC1CCCCC1)N1CCc2ccccc21	-7%
CCOc1ccccc1Nc1ccc(N)cc1S(=O)(=O)O	-10%
O=C(CCCOc1ccc(Cl)cc1Cl)N1CCc2ccccc2C1	2.5µM*
Cc1ccnc2nc(C(=O)Nc3cc(Cl)ccc3N3CCOCC3)nn12	?
O=C(O)CN1C(=O)C2C3CC(C2C1=O)C1C(c2ccccc2)c2sc(=O)[nH]c2SC31 (centres undefined)	-2%
CCOc1ccc(C(=O)N(CN2CCCC2=O)c2ccccc2)cc1	-12%
Clc1ccccc1OCc1nnc(-c2ccccc2Br)o1	20µM*
O=C(Nc1ccccc1)N[C@H]1C[C@H](C(=O)O)Nc2cc(Cl)cc(Cl)c21	-6%
CCCN(Cc1cc2cc(C)ccc2[nH]c1=O)S(C)(=O)=O	-23%
O=C1CCCCCN1CP(=O)(O)CN1CCOCC1	-5%
Oc1c(-c2cc(-c3ccco3)[nH]n2)ccc2ccccc12	-10%
O=C(Nc1ccc(S(=O)(=O)N2CCCC2)cc1)c1ccc(CN2CCc3ccccc3C2)cc1	?
CC(C)OC(=O)[C@@H]1CC[C@H](C)[C@@H](CCC[C@@H]2CC=C[C@H](CC#N)O2)O1	-9%
CCOC(=O)c1c(NC(=O)CSc2nnc(-c3ccncc3)n2Cc2ccco2)sc(C)c1C	-10%
COc1ccc(C(=O)Nc2ccc(S(=O)(=O)N3CCOCC3)cc2)cc1OC	-3%

# Filtered by structure: the entries above with four or more nitrogen atoms
canonical_smiles	HPGD inh
CCn1c(=O)c2c3c(sc2n2cnnc12)CCC3	-1%
CN(c1ccccc1)S(=O)(=O)c1cccc(NC(=O)CSc2nncn2C)c1	-8%
O=C(c1cnccn1)N1CCC2(CC1)CCN(c1ccccn1)CC2	-9%
Cc1ccnc2nc(C(=O)Nc3cc(Cl)ccc3N3CCOCC3)nn12	?
CCOC(=O)c1c(NC(=O)CSc2nnc(-c3ccncc3)n2Cc2ccco2)sc(C)c1C	-10%

# The list continues:
canonical_smiles	HPGD inh
Cc1nn(Cc2ccccc2Cl)c(C)c1NC(=O)CSc1n[nH]c(C)c1[N+](=O)[O-]	-5%
CC1(C)Oc2ccc3ccc(=O)oc3c2/C(=C/N)C1=O	-12%
Nc1[nH]nc2c1NN(c1ccc(Cl)cc1Cl)N2	-10%
N#Cc1cc2sc3nnc(-c4ccncc4)n3c2cc1C#N	-11%
NNC(=O)CNC(c1ccccc1)c1cc(Br)ccc1NC(=O)c1cccc(Cl)c1 (centres undefined)	-3%
COC(=O)[C@H](Cc1ccccc1)NC(=O)NCc1ccc(S(N)(=O)=O)cc1	5%
CC(=O)N(CC(=O)O)c1ccccc1C(=O)O	-10%
O=[N+]([O-])c1ccc2nc(-c3ccc(Cl)cc3)n(OCc3ccccc3)c2c1	2%
O=C1O/C(=C/c2ccccc2)N=C1c1ccccc1	-3%
CC(C)(C)NC(=O)CSc1nc2scc(-c3ccccc3)c2c(=O)[nH]1	-9%
C/C=C/C(=O)OCC(=O)Nc1cc(-c2cc(C)c(C)cc2C)nn1-c1ccccc1	-12%
CCc1ccc(OCCNC(=O)c2cccs2)cc1	-21%
CCCCCCc1cc2cc(-c3nnc(-c4ccccc4O)o3)c(=O)oc2cc1O	-23%
O=C(NCc1ccccc1Cl)C1CCCN(S(=O)(=O)c2cccc3nsnc23)C1 (centres undefined)	-19%
CCc1nc(SCC(=O)c2ccc(C)c(C)c2)n[nH]1	?
C/C(=N\Nc1ncc(Cl)cc1Cl)c1ccc(S(=O)(=O)NCc2ccco2)cc1	-15%
CCOC(=O)/C(=C/C=C/c1ccccc1)NC(=O)c1ccccc1	-13%
C=CCn1c(COc2ccccc2F)nnc1SCC(=O)NC(=O)NCc1ccco1	-7%
CCOC(=O)CSC1=N/C(=C\c2ccc(OC)c(OC)c2)C(=O)N1C	-3%
Cc1cc(CN2C(=O)c3ccccc3C2=O)cc(N2CCOCC2)c1	-8%
O=C(CSc1ncn[nH]1)NC1CC2CCC1C2 (centres undefined)	16µM*
CC[N+](CC)(CC)C/C=C/CN1CCCCC1	0%
C=CCNC(=O)C1CCN(S(=O)(=O)CC)CC1	-6%
Cc1nn(Cc2ccccc2)c(C)c1C(=O)NCCN1C(=O)S/C(=C\c2ccccc2)C1=O	-16%
O=C(COc1ccccc1O)Nc1ccc(Cl)cc1	?
OC(COc1ccc2cc(Br)ccc2c1)CN1CCCC1 (centres undefined)	-20%
COc1ccc(C(=O)OCC(=O)Nc2ccc(F)cc2F)cc1OC	-10%
CNc1nc2c(c(=O)n(C)c(=O)n2C)n1Cc1ccccc1	4%
Cc1c(N=Cc2cccnc2)c(=O)n(-c2ccccc2)n1C	-9%
CCCOc1ccc(N2C(=O)CC(N(Cc3ccc(OC)cc3)C(=S)Nc3ccccc3)C2=O)cc1 (centres undefined)	-6%
C/C(=N/NC(=O)c1cccs1)c1c(C)[nH]n(-c2nc3ccccc3s2)c1=O	-26%
CCn1cc(C2=NOC(C(=O)Nc3cc(C)nn3-c3ccccc3)C2)c(C)n1 (centres undefined)	1%
CC(Sc1nnc(-c2ccccc2)c(-c2ccccc2)n1)C(=O)Nc1ncc(Cl)cc1Cl (centres undefined)	-24%
O=C(Nc1ccc2c(c1)OCO2)c1cc2n(n1)C(C(F)(F)F)CC(c1ccccc1)N2 (centres undefined)	-8%
C=CCn1c(SCC(=O)Nc2cc(NC(C)=O)ccc2OC)nnc1-c1ccccn1	2%
CCOC(=O)CCC(=O)N1CCNC(=O)C1	-10%
COc1ccc(CC(=O)Nc2ccc(S(=O)(=O)NC(C)C)cc2)cc1	-22%
COc1ccc(/C=N/n2c(=O)[nH]c3c([nH]c4ccc(C)cc43)c2=O)cc1CN1CCOCC1	-18%
COc1ccc(NC(=O)C2CCCN(S(=O)(=O)c3cnc[nH]3)C2)cc1 (centres undefined)	-4%
COc1cc(CCC(=O)Nc2ccc(C)c(S(=O)(=O)N(C)C)c2)cc(OC)c1OC	-10%
O=C1C=CC(=O)c2c(O)c(Cl)c(Cl)c(O)c21	?
S=C1NCCc2ccc(Cl)cc2C1c1ccccc1 (centres undefined)	-9%
O=C(NC1CCCCC1)c1ccc(S(=O)(=O)c2ccccc2Cl)c([N+](=O)[O-])c1	-9%
COc1ccc(CCNC(=O)C2CCN(Cc3nc(-c4ccccc4F)oc3C)CC2)cc1OC	-5%
O=C(COc1ccccc1)NCCn1ccc2ccccc21	-9%
CCN(CC)C(=O)CSC1=C(C#N)C(c2cccs2)C=C(C)N1 (centres undefined)	?
Cc1cc(Cl)ccc1OCCCC(=O)N1CCOCC1	-15%
COc1ccc(C2C(Oc3ccccc3)C(=O)N2c2cc(C)ccc2C)cc1OC (centres undefined)	-10%
O=C(NCc1cccs1)C1CCN(S(=O)(=O)N2CCCC2)CC1	-7%
CCOC(=O)NC(=O)CSc1nnnn1-c1ccccc1	-2%
COc1cccc(C2C(C(C)=O)=C(O)C(=O)N2Cc2ccco2)c1 (centres undefined)	-5%
c1ccc2c(C[n+]3csc4ccccc43)cccc2c1	-15%
CCOC(=O)c1nn(-c2ccccc2)c(=O)cc1SC(C)C	-9%
Nc1cc(=O)[nH]c(SCC(=O)Nc2ccc(F)c(Cl)c2)n1	-8%
Cc1ccccc1Nc1nc(N)nc(COC(=O)c2ccccc2)n1	-6%
CCCSC1=C(C#N)C(c2ccc(O)c(OC)c2)CC(=O)N1 (centres undefined)	-12%
CCS(=O)(=O)N1CCN(C(=O)CCC2CCCC2)CC1	-12%
c1ccc2c(c1)CCCc1cc(NCCN3CCOCC3)nnc1-2	-22%
Cc1ccc(NC(=O)COc2ccc(/C=C3/SC(=Nc4ccccc4)N(Cc4cccnc4)C3=O)cc2)cc1	-20%
CC(C)N1C(=O)CC2(CC[N+](C)(CCOC(=O)C(c3ccccc3)c3ccccc3)CC2)C1=O (centres undefined)	?

# Remaining list, next part.
canonical_smiles	HPGD inh
Cc1cc(C)nc(Nc2ncc(O)n2-c2ccc(C)c(C)c2)n1	-8%
O=C(Nc1ccccc1-c1nc2ccccc2s1)c1ccc(Br)o1	-5%
CCn1c(SC(C)C)nnc1-c1c[nH]c2ccccc12	-17%
O=C(Nc1cccnc1)C(Cc1ccccc1)n1cccc1 (centres undefined)	-10%
O=C(Cl)c1ccc([N+](=O)[O-])cc1	-11%
O=C(CSc1ncnc2c1oc1ccccc12)Nc1ccccc1F	-12%
COc1ccc(C2C(C(=O)c3ccccc3)=C(C)Nc3nc4ccccc4n32)cc1OC (centres undefined)	?
COc1ccc(NS(=O)(=O)c2cc(NC(=O)c3cnc(C)cn3)ccc2N2CCCC2)cc1	-14%
CCOC(=O)N1C=CC=C[C@@H]2[C@@H](N3C(=O)c4ccccc4C3=O)C(=O)N21	-18%
CC1(C)OC2OC(COC(=O)c3ccc([N+](=O)[O-])cc3)C3OC(C)(C)OC3C2O1 (centres undefined)	-7%
Cc1ccc(OCc2ccc(C(=O)Nc3nc4ccccc4n3C)o2)c([N+](=O)[O-])c1	-7%
N#Cc1cc(-c2ccccc2)nnc1Sc1ccc(Cl)cc1	-1%
CC(C)(C)C(=O)c1sc2nc(-c3cccs3)cc(C(F)(F)F)c2c1N	?
COc1cccc(C(=O)N2CCN(CCCc3ccccc3)CC2)c1OC	9%
CCOc1ccc2c(c1)c(N=NC(=N)N)c(O)n2C	-13%
N#Cc1c(-n2ccnc2)cccc1-n1ccnc1	-12%
CC1(C)N=C(SCC(=O)Nc2ccc(Cl)cc2Cl)C(c2ccccc2)=N1	-13%
Cc1c(C(=O)Nc2ccc(Cl)cn2)oc2ccccc12	-6%
c1ccc(-c2cnc(CSc3nnc4ccccn34)o2)cc1	-14%
C=CCNC(=O)c1snnc1-c1ccccc1	-4%
O=C(Nc1ccc2ccccc2c1)Nc1ccc2snnc2c1	-3%
Cc1ccc(S(=O)(=O)NC2c3cccc4cccc(c34)C2Sc2ncccn2)cc1 (centres undefined)	-13%
O=C(NC1CCCC1)c1cccc(S(=O)(=O)N2CCCCC2)c1	-5%
NC(=O)C1CCN(C(=O)Cc2ccc([N+](=O)[O-])cc2)CC1	-1%
CC1=C2C(O)C(=O)OC3CC4C(C)(C)C(=O)C=C[C@]4(C)C(CC1)[C@@]23C (some centres undefined)	0%
O=C(NC1CCCC1)C(c1ccncc1)N(Cc1ccccc1)C(=O)c1ccc(-c2ccccc2)[nH]1 (centres undefined)	-20%
Cc1cccc(-c2nnc(-c3ccccc3)o2)c1	?
CCCOC(=O)C1=C(C)OC23OC(N)=C(C#N)C12C(=O)c1ccccc13 (centres undefined)	-12%
COc1ccc(OCC(O)CN2CCC(CN3C(=O)c4cccc5cccc(c45)C3=O)CC2)cc1 (centres undefined)	-22%
Cc1c(Cl)cccc1Nc1nc(N)nc(CSCCO)n1	-2%
Cn1nc([N+](=O)[O-])nc1N1CCN(c2ccc(F)cc2)CC1	0%
CCCC(=O)Nc1nnc(SCC(=O)Nc2ccc3c(c2)OCO3)s1	-8%
CCn1c(COc2ccccc2Cl)nnc1SCC(=O)Nc1ncccc1C	1%
COC(=O)CSc1nnc2n(C3CCCCC3)c(=O)c3c4c(sc3n12)CCCC4	-11%
C=CCNC(=S)NNc1nc2c(c(=O)[nH]1)C1(CCCC1)Cc1ccccc1-2	?
CCOC(=O)COC(=O)c1ccc(O)cc1	0%

# 5 entries already listed, arranged by molar mass, lowest first.
canonical_smiles	HPGD inh
Cn1nc([N+](=O)[O-])nc1N1CCN(c2ccc(F)cc2)CC1	0%
Cc1c(Cl)cccc1Nc1nc(N)nc(CSCCO)n1	-2%
CCn1c(COc2ccccc2Cl)nnc1SCC(=O)Nc1ncccc1C	1%
COC(=O)CSc1nnc2n(C3CCCCC3)c(=O)c3c4c(sc3n12)CCCC4	-11%
COc1ccc(OCC(O)CN2CCC(CN3C(=O)c4cccc5cccc(c45)C3=O)CC2)cc1 (centres undefined)	-22%

# The list is partial, so the mix of outcomes need not match the whole.
